Screening data: PubChem, National Center for Advancing Translational Sciences (NCATS)
RE007 growth inh – less growth of the S. pombe RE007 Vpr strain. AID 651644. Potency, µM (highest dose often 92.2 µM), inactives show at the highest dose activity change, negative = less growth. S. pombe RE007 Vpr strain, BacTiter-Glo ATP luminescence, 24 h; control for the full effect not named in the record. actives 0.21% (n = 360,000); active = well fitted falling curve with a large enough effect; inconclusive = small, poorly fitted or top-dose-only effect; inactive = no such curve, though single readings can be large or run the other way;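 note: % is set by controls: 0 for no effect and ±100 for the full control effect; nearly all actives have a fitted effect of over 50% in size; the assay follows cell death caused by Vpr and the record does not say whether a fall means rescue or toxicity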
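Fission yeast RE007 carrying one integrated HIV-1 vpr copy, seeded at OD 0.01 in PMG+AL medium with 23 nL pinned compound. Grown 24 h at 30 degrees; viability read by BacTiter-Glo luminescence after 5 min.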
Cruzain inh Det – cruzain (T. cruzi) inhibition with detergent; purified cruzain, Z-FR-AMC fluorescence, 0.01% Triton; Potency, µM, for inactives: max response, negative = inhibition, actives largely listed as inhibitors; actives 0.43% (n = 200,000); AID 1478;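 note: plate controls were neutral wells for no effect and buffer without enzyme for full effect; nearly all actives have a fitted effect of over 40% in size; top concentration of the series not given in the record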
Target sequence (P25779 123-467 limits assumed): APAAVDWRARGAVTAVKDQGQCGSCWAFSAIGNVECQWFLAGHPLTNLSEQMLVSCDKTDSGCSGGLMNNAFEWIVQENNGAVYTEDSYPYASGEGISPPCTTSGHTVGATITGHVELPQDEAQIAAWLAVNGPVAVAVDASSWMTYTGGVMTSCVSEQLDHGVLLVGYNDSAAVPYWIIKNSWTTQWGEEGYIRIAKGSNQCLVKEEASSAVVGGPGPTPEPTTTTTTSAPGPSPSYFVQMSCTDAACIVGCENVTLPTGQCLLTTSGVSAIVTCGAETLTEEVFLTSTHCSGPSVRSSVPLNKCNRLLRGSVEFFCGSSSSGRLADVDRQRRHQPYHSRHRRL
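Enzyme 1.5 nM, Z-FR-AMC 2 uM, NaOAc 100 mM pH 5.5, DTT 5 mM, Triton X-100 0.01%; 15 min RT compound preincubation; kinetic ex360/em450, 60 s delta.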
Cruzain noTriton – inhibitors of Trypanosoma cruzi cruzain without detergent. Potency, µM, without a hit: max response, negative = inhibition, hits mostly inhibitors. purified cruzain, Z-FR-AMC fluorescence, no detergent. actives 2.3% (n = 200,000). AID 1476;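 note: plate controls were enzyme without inhibitor for no effect and buffer without enzyme for full effect; nearly all actives have a fitted effect of over 40% in size; top concentration of the series not given in the record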
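Detergent-free condition (0.00005% Triton X-100) in acetate buffer pH 5.5 with DTT. 1.5 nM enzyme and compound were pre-mixed 15 min, then 2 uM Z-FR-AMC substrate added; reaction progress from fluorescence change between first and third reads (60 s).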
NS1 function inh – influenza NS1 inhibition; S. cerevisiae slowed by influenza A NS1, growth recovery by OD600; Potency, µM (series often up to 46.1 µM), for inactives: at the top dose activity, positive = more growth; AID 2326; actives 0.4% (n = 270,000); active means well fitted rising curve with a large enough effect; inconclusive means small, poorly fitted or top-dose-only effect; inactive means no such curve, though single readings can be large or run the other way; note: nearly all actives have a fitted effect of over 50% in size
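Read-out: OD600 growth recovery of NS1-expressing budding yeast. Cells grown overnight at 30C in -URA glucose medium, washed, resuspended and diluted 1:100 in 2% galactose assay medium, pH 6.0. Same strain lacking NS1 served as positive control.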
SARS PLpro yeast – inhibitors of SARS-CoV papain-like protease in yeast; S. cerevisiae expressing SARS-CoV PLpro, growth rescue; control for the full effect not named in the record; Potency, µM (top dose mostly 32.9 µM), for inactives: top-dose activity, positive = growth rescue; actives 0.19% (n = 330,000); AID 485353; active means well fitted rising curve with a large enough effect; inconclusive means small, poorly fitted or top-dose-only effect; inactive means no such curve, though single readings can be large or run the other way; note: 0% is about no effect; nearly all actives have a fitted effect of over 55% in size; growth read by luminescence after 48 h
LASV entry inh – inhibitors of Lassa virus binding or cell entry; actives 1.2% (n = 300,000); Lassa virus pseudotype entry inhibition, cell reporter; control for the full effect not named in the record; Potency, µM (doses to about 37.9 µM), for inactives: at the highest dose activity change, negative = inhibition, hits mostly inhibitors; AID 540256; active means well fitted inhibition curve with a large enough effect; inconclusive means small, poorly fitted or top-dose-only effect, or effect the other way; inactive means flat fitted curve, though single readings scatter; tested in HEK293 cells; note: % is set by controls: 0 for no effect and ±100 for the full control effect; nearly all actives have a fitted effect of over 50% in size; luciferase read-out
2A StopGo – lowers the luciferase signal of an FMDV 2A StopGo reporter; human cells with a luciferase reporter of 2A StopGo recoding; control for the full effect not named in the record; Potency, µM (highest dose often 57.9 µM), for the others: at the highest dose signal change, negative = less light; AID 1159524; actives 1.2% (n = 410,000); active = well fitted falling curve with a large enough effect; inconclusive = small, poorly fitted or top-dose-only effect; inactive = no such curve, though single readings can be large or run the other way; tested in HEK293T cells; note: % is set by controls: 0 for no effect and ±100 for the full control effect; nearly all actives have a fitted effect of over 45% in size; luciferase light after 4 h
Marburg entry inh – inhibitors of Marburg virus binding or cell entry | Marburg virus pseudotyped entry inhibition, cell reporter; control for the full effect not named in the record; about a third of the inactives were read at about 46 µM | actives 1.8% (n = 300,000) | Potency, µM (titrated, usually from 37.8 µM), without a hit: at the highest dose activity change, negative = inhibition, most hits filed as inhibitors; active = well fitted inhibition curve with a large enough effect; inconclusive = small, poorly fitted or top-dose-only effect, or effect the other way; inactive = flat fitted curve, though single readings scatter; tested in HEK293 cells; about a fifth of its hits are not listed in these tables; note: % is set by controls: 0 for no effect and ±100 for the full control effect; luciferase read-out
* marks the source's active call; other numbers are inactive results; u = inconclusive; x = not tested or not shown; & = joins results of further samples; [ ] = dose if it differs, or a comment. Unless noted, calls come from the whole dose curve; as a rule, active = well fitted curve in the direction sought with a large enough effect; inconclusive = small, poorly fitted or top-dose-only effect, or another doubt; inactive = no such curve, though single readings can be large; an effect the other way counts as inactive or inconclusive. Potency is the fitted concentration of half-maximal effect.

[1] CCN(CC)C(=O)Oc1ccc(NC(C)=O)cc1
[2] Cc1ccc(C(C)C)c(OCC(=O)Nc2ccc(S(=O)(=O)Nc3onc(C)c3C)cc2)c1
[3] O=C(O)CC1S/C(=N/N=C/c2ccc(-c3ccc(Cl)c([N+](=O)[O-])c3)o2)NC1=O (stereo not given)
[4] CC(C)N(C(=S)NCc1ccccc1)c1ccccc1
[5] Cc1ccccc1-n1c2nc(=O)[nH]c(=O)c-2cc2c(Cl)cccc21
[6] COC(=O)Cc1ccc(NC(=S)NCc2ccco2)cc1
[7] O=C(COc1ccc(Cl)cc1Cl)NCC1(N2CCOCC2)CCCCC1
[8] COC1c2ccccc2C(=O)N1CCc1ccc(Cl)cc1 (stereo not given)
Screen / compound no.,1,2,3,4,5,6,7,8
RE007 growth inh,-4%,x,0%,-5%,x,0%,4%,1%
Cruzain inh Det,3.5%,-25%,x,x,-6.0%,x,x,x
Cruzain noTriton,4%,8%,x,x,-23%,x,x,x
NS1 function inh,6%,x,x,x,x,1%,x,-20%
SARS PLpro yeast,3%,x,-4%,6%,x,0%,-6%,-2%
LASV entry inh,0%,13%[46.1 µM],2%,-14%,-23%[46.1 µM],-10%,u,x
2A StopGo,17%,-10%,-7%,22%,-27%,37%[activator],u,15%
Marburg entry inh,-1%,x,-2%[46.1 µM],-5%[46.1 µM],x,20%[46.1 µM],u,x

Full records as entered above. Order of screens: RE007 growth inh	Cruzain inh Det	Cruzain noTriton	NS1 function inh	SARS PLpro yeast	LASV entry inh	2A StopGo	Marburg entry inh
Shown for CCN(CC)C(=O)Oc1ccc(NC(C)=O)cc1 : -4%	3.5%	4%	6%	3%	0%	17%	-1%
Shown for COC1c2ccccc2C(=O)N1CCc1ccc(Cl)cc1 (stereo not given) : 1%	x	x	-20%	-2%	x	15%	x

Next entries follow.
[9] COc1cccc(C(=O)C2CCCN(C(=O)c3ccc(C#CC(C)(C)O)cc3)C2)c1 (stereo not given)
[10] N#CC1=C(SCC(=O)NC2CCCCC2)NC(=O)CC1c1ccco1 (stereo not given)
[11] COCc1c(C(=O)N/N=C(\C)c2ccncc2)nnn1-c1nonc1N
[12] CCCc1[nH]nc2c1C1(C(=O)N(C(C)C)c3ccccc31)C(C#N)=C(N)O2 (stereo not given)
[13] CC(=O)c1ccc(N2CCN(C(=O)C3CCN(S(=O)(=O)Cc4ccccc4)CC3)CC2)cc1
[14] CCOC(=O)c1ccc(NC(=O)c2ccc3c(c2)c(C)c(C)n3Cc2ccc(F)cc2)cc1
[15] CCCN(Cc1ccco1)S(=O)(=O)c1ccc(OC)c(OC)c1
[16] COc1cccc(N2C(=O)C(CC(=O)Nc3cccc(F)c3)N(C3CCCC3)C2=O)c1 (stereo not given)
Screen / compound no.,9,10,11,12,13,14,15,16
RE007 growth inh,3%,-7%,-17%,13%,-18%,x,-18%,x
Cruzain inh Det,x,3.4%,x,-2.0%,-5.1%,1.4%,x,-14%
Cruzain noTriton,x,4%,x,4%,-4%,7.9µM*,x,-9%
NS1 function inh,-6%,1%,1%,-11%,-21%,x,0%,x
SARS PLpro yeast,0%,4%,-3%,-1%,-4%,x,0%,x
LASV entry inh,x,-1%,x,15%,-13%,-1%[46.1 µM],x,-21%[46.1 µM]
2A StopGo,-19%,9%,-1%,7%,0%,0%,10%,6%
Marburg entry inh,x,-23%,x,-1%,-10%,x,x,x

[17] COc1ccc(OC)c(NC(=O)C2CC(=O)N(CCc3ccccc3)C2)c1 (stereo not given)
[18] O=C(Nc1ccc(N2CCCC2)cc1)c1ccc([N+](=O)[O-])cc1Cl
[19] COc1ccc(N2CCN(CCNC(=O)Nc3ccc(C)c(Cl)c3)CC2)cc1
[20] N#CCCSCc1ccc2oc(C(=O)O)cc2c1
[21] CCN(CC)CCn1c2c(c(SCC(=O)Nc3ccc(C(C)C)cc3)nc1=O)CCCC2
[22] O=C(/C=C/c1ccccc1[N+](=O)[O-])NCCN1C(=O)S/C(=C\c2ccc(F)cc2)C1=O
[23] Cc1cccc(CC(=O)N2CCOCC2)c1
[24] COc1ccc(NC(=O)c2ccccc2OCc2ccc(F)cc2)c(OC)c1
Screen / compound no.,17,18,19,20,21,22,23,24
RE007 growth inh,-8%,2%,2%,-1%,16%,43%,1%,-11%
Cruzain inh Det,x,-0.4%,x,-1.7%,x,x,x,x
Cruzain noTriton,x,10µM*,x,-17%,x,x,x,x
NS1 function inh,x,8%,-5%,1%,x,3%,7%,-33%
SARS PLpro yeast,0%,14%,-2%,5%,0%,1%,-5%,1%
LASV entry inh,2%,12%,x,3%,1%,1%,x,x
2A StopGo,-8%,-4%,u,13%,-7%,50%[activator],5%,4%
Marburg entry inh,u,1%,x,2%,-7%,0%[46.1 µM],x,-20%[46.1 µM]

Continued (2 carried over from the part before).
[23] Cc1cccc(CC(=O)N2CCOCC2)c1
[24] COc1ccc(NC(=O)c2ccccc2OCc2ccc(F)cc2)c(OC)c1
[25] COC(=O)c1ccccc1NC(=O)C1=CC(c2cccs2)=NS(=O)(=O)N1C
[26] Cc1ccc(C(=O)NCCCNC(=O)COc2ccc(C)c(C)c2)cn1
[27] C/C(=C\[C@@H](NP(=O)(c1ccccc1)c1ccccc1)c1ccccc1)CO[Si](c1ccccc1)(c1ccccc1)C(C)(C)C
[28] Cc1ccc(CNC(C)(C)CO)cc1
[29] Cc1ccc(NC(=O)CCCc2nc3ccccc3s2)c(O)c1
[30] COc1cccc(NCc2cc(=O)oc3cc(C)c(O)cc23)c1
[31] O=C1CC(c2ccco2)CC(O)=C1C=Nc1ccccc1-c1ccccc1 (stereo not given)
[32] COCCn1c(SCc2nnc(-c3ccccc3)o2)nc2sc3c(c2c1=O)CCC3
Screen / compound no.,23,24,25,26,27,28,29,30,31,32
RE007 growth inh,1%,-11%,6%,1%,9%,12%,-15%,6%,u,14%
Cruzain inh Det,x,x,-4.4%,x,-1.1%,-1.4%,x,x,x,-4.8%
Cruzain noTriton,x,x,6%,x,5%,-6%,x,x,x,u
NS1 function inh,7%,-33%,12%,17%,x,7%,x,6%,x,-43%
SARS PLpro yeast,-5%,1%,2%,3%,x,10%,-11%,-2%,-11%,-1%
LASV entry inh,x,x,0%[46.1 µM],-11%,x,-3%,15%[46.1 µM],-9%[46.1 µM],-22%[46.1 µM],5%
2A StopGo,5%,4%,0%&-14%,u,-23%,20%,-10%,8%,-29%,-17%
Marburg entry inh,x,-20%[46.1 µM],-28%[46.1 µM],-3%[46.1 µM],x,9%,-13%[46.1 µM],-4%[46.1 µM],-13%[46.1 µM],17%

[33] CCC(=O)c1ccc(N2CCN(C(=O)c3cc([N+](=O)[O-])ccc3F)CC2)c(F)c1
[34] CCCCC(=O)N/N=C/c1c(O)n(CC)c(=S)[nH]c1=O
[35] S=c1[nH]nc(C(c2ccccc2)C2CCCCC2)o1 (stereo not given)
[36] CS(=O)(=O)c1ccc(C(=O)OCC(=O)NC2CCS(=O)(=O)C2)cc1[N+](=O)[O-] (stereo not given)
[37] CCN(C(=O)CSc1nc2ccccc2n1Cc1ccc(F)cc1Cl)c1ccccc1
[38] CCOC(=O)C(C)Oc1c(C(=O)OC)sc2ncccc12 (stereo not given)
[39] CC(=O)Nc1ccc(N(C(=O)CNC(=O)c2ccco2)C(C(=O)NCC2CCCO2)c2ccccc2)cc1 (stereo not given)
[40] Cc1csc(NC(=O)CSc2nnc(NC(=O)NC(C)(C)C)s2)n1
Screen / compound no.,33,34,35,36,37,38,39,40
RE007 growth inh,18%,15%,-1%,4%,x,-6%,-13%,0%
Cruzain inh Det,x,6.5%,x,x,-4.0%,x,x,x
Cruzain noTriton,x,16%,x,x,0%,x,x,x
NS1 function inh,-1%,3%,-44%,6%,x,x,1%,x
SARS PLpro yeast,0%,-1%,-1%,1%,x,2%,0%,3%
LASV entry inh,-4%,1%,5%,-11%[46.1 µM],17%[46.1 µM],u,19%[46.1 µM],6%
2A StopGo,-26%,-20%,-11%,21%,-24%,-14%,-5%,23%
Marburg entry inh,-20%,-25%,5%[46.1 µM],u,x,2%,0%[46.1 µM],-6%

[41] CCOC(=O)c1c(/N=C/c2c(O)n(-c3ccccc3F)c(=S)[nH]c2=O)sc2c1CCCC2
[42] O=C(NCc1ccc(C(F)(F)F)cc1)C1CC(c2ccccc2C(F)(F)F)=NO1 (stereo not given)
[43] CC(C)C(=O)c1c(C(C)C)nn2ccccc12
[44] COc1cccc(-c2nc(CS(=O)(=O)CC(=O)N3CCN(C)CC3)c(C)o2)c1
[45] CN1C(=O)C(=Cc2ccc(N3CCCCCC3)o2)C(=O)N(C)C1=S
[46] O=C(NC1CCCCC1)C1CCC(CNS(=O)(=O)c2ccccc2)CC1 (stereo not given)
[47] O=C(NCCc1cccc(F)c1)C1CCN(S(=O)(=O)c2ccc(F)cc2)CC1
[48] COc1ccc(CC(=O)Nc2nnc(SCC(=O)NCc3ccco3)s2)cc1OC
Screen / compound no.,41,42,43,44,45,46,47,48
RE007 growth inh,-17%,-16%,10%[18.4 µM],0%,-14%,-4%,8%,28%
Cruzain inh Det,-11%,x,-2.5%&-2.1%,-2.0%,-0.1%,x,x,x
Cruzain noTriton,16µM*,x,-2%&-3%,-6%,-10%,x,x,x
NS1 function inh,-2%,-3%,-11%,-7%,-1%,0%,7%,3%
SARS PLpro yeast,10%,-15%,x,0%,-1%,-1%,1%,0%
LASV entry inh,5%,x,-13%,x,4%,x,x,20%
2A StopGo,0%,-20%,-10%&-21%,-29%,-18%,-12%,-29%,-18%
Marburg entry inh,4%,x,14%&14%&14%&28%&14%&14%&14%,x,19%,x,x,u
